High-throughput results: PubChem BioAssay, several laboratories
RanGTP-Impb inh: disruptors of Ran-importin-beta complex formation – biochemical, FRET, CFP-Ran, YFP-importin-beta, homogeneous, primary screen; cell-free CFP-Ran/YFP-importin-beta FRET ratio; inhibition, % (no concentration beside the values); actives 1.1% (n = 300,000); AID 2216;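 active means most replicates above 15%; inconclusive means exactly half above 15%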;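 further: 0% = DMSO wells and 100% = Ran loaded with GDP instead of GTP; wells of about 40 µL received 100 nL stock; the first replicate is given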
FGF22 binding: shifts melting point of recombinant human FGF22 | Q9HCT0 | recombinant FGF22 thermal shift, SYPRO orange fluorescence; percent of sucrose octasulfate shift, DMSO zero | calls only at 9.99 µM | actives 1.5% (n = 340,000) | AID 651658;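 active means melting point raised past a set limit in the mean and every replicate; inconclusive means no clear call; three in four hits are not shown here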
Target sequence (Q9HCT0 whole entry, looked up): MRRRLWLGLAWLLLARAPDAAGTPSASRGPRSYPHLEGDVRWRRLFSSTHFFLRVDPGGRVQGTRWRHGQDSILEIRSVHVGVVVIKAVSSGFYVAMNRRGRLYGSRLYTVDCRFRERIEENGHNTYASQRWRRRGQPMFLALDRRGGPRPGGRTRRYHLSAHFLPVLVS
UCH37 inh: human UCH37 deubiquitinating enzyme inhibition; Q9Y5K5; purified proteasome/UCH37, Ub-AMC cleavage fluorescence; inhibition, % (no concentration beside the values); actives 0.33% (n = 330,000); AID 588478;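 active means mean of two replicates above 20%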;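 further: 0% = compound-free wells with enzyme and 100% = wells lacking proteasome; stock transfer was 100 nL into about 20 µL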
Target sequence (Q9Y5K5 whole entry, looked up): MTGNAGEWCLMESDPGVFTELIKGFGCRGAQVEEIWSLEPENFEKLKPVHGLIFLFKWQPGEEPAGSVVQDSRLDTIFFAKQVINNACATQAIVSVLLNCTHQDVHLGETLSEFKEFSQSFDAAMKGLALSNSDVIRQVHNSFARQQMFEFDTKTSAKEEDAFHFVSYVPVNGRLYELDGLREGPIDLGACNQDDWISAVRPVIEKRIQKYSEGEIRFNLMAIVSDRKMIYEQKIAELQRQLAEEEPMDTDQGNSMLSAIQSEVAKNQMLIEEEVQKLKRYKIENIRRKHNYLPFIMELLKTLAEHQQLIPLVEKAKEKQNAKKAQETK
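Signal – fluorescence, ex 355 nm, em 460 nm · System – Proteasome-bound UCH37 · Input – 0.15 nM proteasome as dispensed · Timing – 30 min preincubation with enzyme, 25 min cleavage at room temperature · Read-out basis – percent inhibition of cleavage signal versus uninhibited and no-proteasome wells · Medium – Tris-HCl pH 7.4 with ATP-MgCl2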
Ecoli growth: E. coli growth inhibition | Escherichia coli growth, OD600, 23 h; active compounds read low | actives 0.21% (n = 330,000) | OD600 absorbance (test concentration not listed);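 active means OD600 absorbance below the run mean of sample wells minus 3.6 SD, in any replicate, cut at about 0.56 in these data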;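 further: stock transfer was 300 nL into about 60 µL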
AF4-AF9 inh: blocks AF4 peptide binding to human AF9; P42568; AlphaScreen, biotin-AF4 peptide binding to FLAG-AF9; inhibition, % at 10 µM; actives 0.47% (n = 350,000); AID 651704;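 active means every replicate reaching a set inhibition limit, whatever the replicate mean, cut at about 25% in these data; inconclusive means mean inhibition reaches that limit but some replicates miss it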;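 further: 0% = plate neutral control median and 100% = total signal loss; the record names both 10 and 1 µM as test concentration; the first replicate is given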
Target sequence (P42568 whole entry, looked up): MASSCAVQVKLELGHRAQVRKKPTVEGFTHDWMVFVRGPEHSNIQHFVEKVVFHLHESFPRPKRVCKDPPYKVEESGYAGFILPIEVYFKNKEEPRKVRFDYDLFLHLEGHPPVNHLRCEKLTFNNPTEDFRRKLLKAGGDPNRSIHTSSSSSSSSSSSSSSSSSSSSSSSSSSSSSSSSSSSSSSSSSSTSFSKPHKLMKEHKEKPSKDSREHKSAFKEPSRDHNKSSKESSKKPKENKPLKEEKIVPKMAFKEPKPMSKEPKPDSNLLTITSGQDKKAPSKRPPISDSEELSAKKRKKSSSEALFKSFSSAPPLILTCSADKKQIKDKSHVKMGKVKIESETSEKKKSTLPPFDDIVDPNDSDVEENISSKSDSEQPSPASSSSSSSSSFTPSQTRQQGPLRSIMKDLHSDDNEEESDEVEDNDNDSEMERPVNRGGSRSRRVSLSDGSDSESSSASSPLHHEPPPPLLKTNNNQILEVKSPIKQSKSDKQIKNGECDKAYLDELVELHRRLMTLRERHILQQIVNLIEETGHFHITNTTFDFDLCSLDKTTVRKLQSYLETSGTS
Vif A3G: inhibitors of Vif binding to APOBEC3G peptide, primary screen, biochemical, TR-FRET, GST-Vif 1-94, biotin-A3G peptide, dose response retest (AID 1117319) | TR-FRET GST-Vif / biotin-A3G peptide binding; higher % means a stronger effect; test concentration not given here; strong numbers were not always called active | one-dose inhibition, %; IC50 in µM for titrated hits | actives 0.57% (n = 260,000);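 active means above the screen mean plus three standard deviations and confirmed in dose response; inconclusive means results disagree or hit not tested in dose response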;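 further: Vif residues 1-94 fused to GST binding biotinylated APOBEC3G peptide 110-148; 0% = full assay without inhibitor and 100% = GST in place of GST-Vif; retest series ran down from 100 µM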
HNF4A DNA FP: change in binding of human HNF4 alpha to DNA; activity change, % at 10 µM; AID 1224865; HNF4a-FITC DNA binding, fluorescence polarization, 1 h; actives 0.3% (n = 360,000); P41235; in the data active means activity change above about 30%, passing the limit was not always enough;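 further: controls were the assay level and a saturating level of protein; the project sought stronger binding though the title names inhibitors; some compounds called inactive have numbers as strong as hits; positive values seem to mean higher polarization but the record does not say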
Active calls of the source: *; i = inactive; ? = inconclusive; nt = no result given; + = active, no number; & = joins results of further samples.

molecule	RanGTP-Impb inh	Ecoli growth	Vif A3G	UCH37 inh	FGF22 binding	HNF4A DNA FP	AF4-AF9 inh
COc1ccccc1C(=O)NCCC(=O)NCCOc1ccc(C)cc1	nt	nt	5%	nt	i	-1.6	-3.5
CC(C)CN(CC(C)C)C(=O)C12CCC(C)(C(=O)O1)C2(C)C (stereo not given)	-0.5	0.67	30%	1.9	nt	-1.4	nt
C=CCNc1nnc(-c2ccncc2)s1	0.2	0.73	4%	-198	nt	0.7	nt
CCCOc1ccc(CN(CCO)CCO)cc1C(=O)OC	-2.7	0.64	4%	0.4	i	0.9	8.2
COc1cc2c(cc1OC)C(c1ccc(-c3cc(Cl)ccc3Cl)o1)=NCC2	-4.1	0.7	-2%	-4.0	nt	38*	5.8
CCC/C=N/NC(=O)CNC(=O)c1ccccc1Cl	-0.1	nt	nt	nt	i	3.3	0.5
CCN1C(=O)/C(=C/c2ccc(C)o2)N(C)C1=S	1.2	nt	?	nt	i	-1.8	3.0
COc1ccc(OCC(=O)N2CCN(C(=O)c3ccco3)CC2)cc1	3.7	0.72	-3%	-1.5	nt	-1.2	nt
COc1ccc(Cl)cc1NC(=O)CN1CCC(n2nnc3ccccc32)CC1	5.4	0.75	14%	5.3	nt	-1.3	nt
N#Cc1cccc(NC(=O)c2cc(C3CCCCN3C(=O)c3cccs3)on2)c1 (stereo not given)	nt	nt	nt	nt	i	0.0	0.7
CCN(Cc1ccccc1)C(=O)Cn1c(=O)n(CC(=O)NCc2ccco2)c(=O)c2sccc21	3.1	0.72	-19%	1.2	nt	-4.4	nt
Cc1cc(C)nc(SCC(=O)Nn2cnnc2)n1	1.3	0.78	-1%	-0.4	nt	3.2	nt
COC(=O)N(C)C[C@@H]1OCc2cnnn2CCCC(=O)N([C@@H](C)CO)C[C@@H]1C	nt	nt	2%	nt	i	0.7	-5.4&-0.4
CCOc1ccc(-n2c(=O)cc(N3CCN(c4ccc(F)cc4)CC3)[nH]c2=O)cc1	1.1	0.75	3%	5.0	nt	-1.5	nt
O=C(NN1CCOCC1)c1sc2cccc(F)c2c1Cl	0.2	0.69	-3%	3.3	i	3.9	-0.3
COc1ccc2cc(-c3ccn[nH]3)ccc2c1	-3.0	0.67	nt	2.2	i	-1.6	-2.1
CC(=O)c1ccc(-c2ccc(C(=O)NCC(c3ccc(F)cc3)N3CCOCC3)o2)cc1 (stereo not given)	-0.5	0.68	-6%	-280	i	0.3	-12
CN(C)C(=O)c1cnc(Sc2ncc(C(F)(F)F)cc2Cl)n1C	5.6	0.72	?	2.5	nt	-1.1	nt
COC(=O)[C@@]12C[C@@H](CC(=O)N3CCN(C(=O)c4ccco4)CC3)C(=O)N(Cc3ccccc3)C1=CCC(C)(C)C2	nt	nt	nt	nt	i	0.2	1.3
COc1ccccc1CNC(=O)COC(=O)c1cccc(S(=O)(=O)N2CCOCC2)c1	-2.5	0.63	1%	-2.1	i	3.5	-2.6
CCOC(=O)Cc1csc(NC(=O)CN(C)S(=O)(=O)c2cccc3cccnc23)n1	nt	0.77	8%	4.9	i	1.1	5.5
C=CCn1c(C(CC)CC(C)(C)O)n[nH]c1=S (stereo not given)	-3.2	0.68	nt	0.8	i	-0.8	1.7
Cn1cnnc1SCc1nc(N)nc(Nc2ccccc2)n1	0.8	0.7	-4%	1.2	nt	12	nt
O=C(c1ccc(S(=O)(=O)N2CCc3ccccc3C2)cc1)N1CCCCC1	0.1	0.69	-9%	3.2	i	-1.8	1.1
C[C@H](CO)N1C[C@H](C)[C@@H](CN(C)S(=O)(=O)c2ccccc2)Oc2ccc(NC(=O)Nc3ccc4c(c3)OCO4)cc2C1=O	nt	0.78	nt	-1.6	i	-1.5	11&4.1
Cc1cc(-n2c(C)cc(C(=O)CSc3nnnn3-c3ccccc3)c2C)no1	-2.7	0.69	1%	4.2	i	1.0	7.0
Cc1ccc(NS(=O)(=O)c2cccc(C(=O)NNC(=O)c3cccn3C)c2)c(C)c1	3.4	0.7	nt	2.2	i	-1.4	3.0
CCOc1ccc2nc(NS(=O)(=O)c3ccc4c(c3)n(C)c(=O)n4C)sc2c1	-3.1	0.71	-2%	4.6	nt	-3.3	nt
C=CCn1c(SCC)nc2sc3c(c2c1=O)CCc1ccccc1-3	-4.6	0.71	1%	5.1	nt	-1.3	nt
O=C(Nc1ccc(O)cc1)c1cccc(Oc2ccc([N+](=O)[O-])cc2)c1	3.0	0.57	1%	0.6	+	4.8	5.8
COc1cc(NC(=O)c2ccccc2-n2cnnn2)cc(OC)c1	-0.1	0.65	-5%	-1.2	i	-2.6	2.0
c1ccc2c(CN3CCOCC3)csc2c1	0.6	0.7	5%	-0.5	i	-1.6	-0.2
O=C(COc1ccccc1)Nc1ccc(Cl)c(-c2nc3ncccc3o2)c1	nt	0.75	?	-2.6	nt	3.9	nt
Oc1ccc(C23CCCC2C2(CCCC2)c2ccc(O)cc2O3)c(O)c1 (stereo not given)	nt	0.65	-11%	-0.7	i	0.3	9.7
O=[N+]([O-])c1ccc(-c2nn(-c3ccccc3)cc2/C=N/n2c(-c3cccs3)n[nH]c2=S)cc1	?	nt	-5%	nt	i	-2.1	-0.6
Cn1c(=O)c2ncn(CC(=O)NC3CCCCCC3)c2n(C)c1=O	4.7	0.69	-1%	0.6	nt	3.1	nt
O=C(Cc1ccccc1)Nc1ccccc1N1CCN(c2ccccc2)CC1	-0.5	0.68	10%	3.4	i	0.9	-5.1
COc1ccc(CC(=S)N2CCOCC2)cc1F	6.7	0.69	nt	4.8	i	-2.1	2.5
O=C(COC(=O)/C=C/c1ccco1)NCc1ccc(Cl)cc1Cl	nt	0.71	nt	2.9	i	-2.2	-6.4
O=C(c1ccc(F)cc1F)N1CCCc2ccccc21	-3.4	0.64	-4%	-0.9	i	-1.6	-1.1
O=C(COC(=O)c1cc(Cl)ccc1[N+](=O)[O-])NC1CC1	nt	0.67	nt	1.9	i	-3.2	-0.8
CCCc1ccc(C(O)c2ncc(-c3cccc(C)c3)[nH]2)cc1 (stereo not given)	nt	nt	nt	nt	i	0.1	0.4
CCc1nc2c(OCCOc3ccc(F)cc3)cccn2c1N(C)C(=O)CC(C)C	nt	nt	nt	nt	i	3.9	0.8
O=C(CC(c1ccccc1)(c1ccccc1)c1ccccc1)N[C@@H](Cc1ccc(O)cc1)C(=O)O	-0.9	nt	-7%	-0.2	i	-2.0	-0.2
COc1ccc2nc(NC(=O)C3CCN(C(=O)c4ccc(F)cc4)CC3)sc2c1	-0.3	0.73	-13%	0.3	i	-3.3	-0.8
CCc1nc2c(sc3nc4c(cc32)COC(C)(C)C4)c(=O)n1CCN(CC)CC	-2.1	0.72	1%	-1.9	i	1.8	-0.8
CC(C)Cc1nnc(NC(=O)CCC(=O)N2CCN(c3ccc([N+](=O)[O-])cc3)CC2)s1	-2.6	0.66	nt	8.5	i	1.6	2.7
NN=C(NN=Cc1ccccc1)c1ccccc1	nt	nt	-3%	nt	i	1.7	-0.2
CC1Cc2ccccc2N1C(=O)CSc1ccccn1 (stereo not given)	nt	nt	0%	nt	i	0.8	-2.6
COc1ccc(C)cc1NC(=O)C(NCC1CCCO1)c1ccccc1 (stereo not given)	-2.5	nt	3%	1.1	nt	-0.1	nt

More results.
molecule	RanGTP-Impb inh	Ecoli growth	Vif A3G	UCH37 inh	FGF22 binding	HNF4A DNA FP	AF4-AF9 inh
Cc1ccc(C(=O)OCC(=O)NCCc2ccc(F)cc2)cc1S(=O)(=O)N1CCOCC1	nt	0.7	nt	1.4	i	-1.4	0.5
O=C(Nc1cccnc1)c1cc(-c2cccnc2)nc2ccc(Br)cc12	2.8	0.73	0%	5.8	i	-0.7	-0.8
Cc1cc(NC(=O)CSc2nc3ccccc3c(=O)n2C(C)c2ccccc2)no1 (stereo not given)	3.8	0.75	2%	2.6	nt	0.0	nt
Cc1ccc(SCCNC(=S)Nc2ccc(C)cc2C)cc1	-1.1	0.69	-6%	3.0	nt	3.6	-0.3
COc1ccc(-c2coc3cc(OC4OC(CO)C(O)C(O)C4O)cc(O)c3c2=O)cc1 (stereo not given)	nt	0.7	nt	2.5	i	-7.2	-0.2
Cc1nn(-c2ccccc2)c2nc(C(F)(F)F)[nH]c(=O)c12	3.0	0.72	nt	-3.2	i	2.0	-4.9
CCOC(=O)c1ccc(Nc2ncccc2[N+](=O)[O-])cc1	5.4	0.63	1%	0.6	i	-0.1	0.6
CCN1CCC(N2CCN(c3ccc(Cl)cc3)CC2)CC1	-4.0	0.7	nt	0.7	nt	nt	nt
Cc1nc(CNC(=O)CC2C(=O)NCCN2Cc2ccoc2)nc2c1CCCC2 (stereo not given)	1.4	0.69	30%	-0.9	i	-4.2	2.8
NNc1ccc(Cl)nn1	1.5	0.69	5%	0.4	i	-2.3	1.4
O=C(NNC1CC(=O)N(c2ccc(Cl)cc2)C1=O)c1ccccn1 (stereo not given)	1.8	0.72	2%	26*	i	1.9	-2.2
C=C(C1=CCN(S(=O)C(C)(C)C)[C@@H]1CCO)c1ccccc1 (stereo not given in full)	nt	0.69	5%	-1.4	i	0.8	0.7
CCOc1ccccc1/C=N/NC(=O)c1ccc(Cn2cc([N+](=O)[O-])cn2)o1	0.2	nt	2%	nt	nt	2.9	nt
Cc1cc(NS(=O)(=O)c2ccc(NC(=O)C(CC(C)C)N3C(=O)c4ccccc4C3=O)cc2)nc(C)n1 (stereo not given)	2.8	0.66	2%	6.9	nt	-0.5	nt
Cc1c(NC(=O)C2CCN(S(=O)(=O)c3ccc(Cl)cc3)CC2)c(=O)n(-c2ccccc2)n1C	6.9	0.66	-5%	1.2	nt	6.0	nt
O=C(Nc1ccc(Nc2ccccc2)cc1)c1cc([N+](=O)[O-])ccc1Cl	-0.5	0.65	-2%	3.8	nt	-1.5	12
Cc1cc(Oc2ccc(C#N)cc2)nc(NCc2ccccc2)n1	-2.4	0.69	-10%	2.7	nt	1.7	nt
CC(=O)c1c(C)[nH]c(C(=O)OCC(=O)Nc2ccc3[nH]c(=O)[nH]c3c2)c1C	0.4	0.63	1%	-0.3	i	5.1	-3.3
NC(=O)C1CCN(c2nc(-c3ccccc3)nc3c2oc2ccccc23)CC1	2.8	0.67	-5%	-30	nt	-2.1	nt
COc1cc(OC)c(OC)cc1CN1CCN(Cc2cccc(F)c2)CC1	-0.1	0.65	nt	2.3	i	2.1	-3.2
CCc1nn(C)c(-c2n[nH]c(=S)n2N)c1Cl	-0.7	0.71	-10%	-1.4	nt	-4.1	nt
Cc1cc(OCC(=O)NCC(O)c2ccccc2)c2c(C)c(C)c(=O)oc2c1 (stereo not given)	-4.4	0.68	nt	-102	i	-1.2	-0.7
CCN(CC)C(=O)c1ccccc1NS(=O)(=O)c1ccc(C)cc1	5.1	0.74	0%	4.5	nt	0.9	nt
Cc1nnc(SCC(=O)N(CC(C)C)C2CCS(=O)(=O)C2)s1 (stereo not given)	nt	0.71	0%	1.0	i	1.2	0.0
CCOC(=O)Cc1csc(NC(=O)CSc2nncn2C)n1	?	0.72	29%	5.2	nt	-0.5	nt
c1ccc2c(CSc3ncnc4nc[nH]c34)cccc2c1	?	0.67	12%	2.8	i	-0.1	-0.8

A portion of the library; count on the stated rates, not on these rows.
